Yeast UUG start = modulators of start codon recognition fidelity in yeast; S. cerevisiae UUG-firefly luciferase reporter, luminescence/redox ratio; activity score, % at 18.7 µM; 350,000 tested, 0.13% active; AID 602363;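 active = replicate mean at a twofold rise or more, about +100% in these data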;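 note: firefly luciferase made from a UUG start codon reports start codon fidelity; reporter light over untreated wells divided by growth signal over untreated wells; some hits fall short of that in this replicate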
Rce1 inh = inhibitors of yeast Ras-converting enzyme. Q03530. yeast membranes, quenched prenylated peptide cleavage fluorescence. calls only. 290,000 tested, 0.27% active. AID 2563;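 active = fall in fluorescence gain of 50% or more versus controls, with final raw signal at or below 3038400; inconclusive = same 50% fall but final raw signal above 3038400; inactive = fall in fluorescence gain under 50%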;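 note: plate controls were neutral control wells for no effect and wells lacking membranes for full effect; tested at 10 µM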
Target sequence (Q03530 whole entry, looked up): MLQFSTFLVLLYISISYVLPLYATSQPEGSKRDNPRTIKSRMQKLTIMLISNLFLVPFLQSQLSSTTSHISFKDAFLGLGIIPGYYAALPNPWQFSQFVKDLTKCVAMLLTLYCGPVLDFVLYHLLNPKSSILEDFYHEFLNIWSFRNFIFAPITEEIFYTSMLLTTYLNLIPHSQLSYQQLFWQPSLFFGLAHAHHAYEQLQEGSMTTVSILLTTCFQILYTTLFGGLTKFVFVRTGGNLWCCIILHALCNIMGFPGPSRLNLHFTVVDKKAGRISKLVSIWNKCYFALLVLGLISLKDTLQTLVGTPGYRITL
MT1-MMP act inh = inhibitors of human MT1-MMP activation | P50281 | HT1080 RFP-PRO-GFP cells, GFP/RFP ratio fluorescence, overnight; percent of plate control window, DMSO zero | GFP/RFP ratio change, % at 20 µM | 360,000 tested, 0.061% active;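 active = GFP/RFP ratio change of at least 30% with cell ATP level not reduced by more than half and red fluorescence within 50% of control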; note: strong numbers were not always called active
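Assay system: HT1080 cells carrying an RFP-PRO-GFP reporter | Dosing: Single dose of 20 µM compound, 1% DMSO final | Incubation: Cells overnight before dosing, compound overnight, 37 °C, 5% CO2 | Evaluation: GFP/RFP fluorescence ratio | Control set: DMSO and RFP-L50D-GFP cell wells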
eIF4H inh = inhibitors of RNA binding by human eIF4H | eIF4H fluorescence polarization binding assay | inhibition, % at 35 µM | 290,000 tested, 0.94% active;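 active = 50% or more with normal probe brightness, or confirmed in later tests; inconclusive = above 50% with abnormal brightness, or retests that disagree; inactive = below 50% or failed in later tests; about a fifth of its hits are not listed in these tables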;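 note: calls also rest on retests at 20 µM and on dose response follow-up; 0% = protein and probe with vehicle and 100% = probe without protein; strong numbers were not always called active; many hits fall short of the cut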
HIV Env fusion = inhibitors of HIV Env-mediated cell fusion; HeLa-JRFL Env/CEM21 cell fusion, luciferase; inhibition, % at 12.3 µM; 360,000 tested, 1.1% active; AID 651610;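 active = mean replicate inhibition score of at least 50 and every replicate individually at or above 50; inconclusive = only one of the two criteria met; inactive = mean below 50 and not all replicates reaching 50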;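 note: 0% = plate neutral controls and 100% = maraviroc near 300 nM; one replicate is shown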
CSC inhib = cancer stem cell inhibition; 300,000 tested, 1.1% active; AID 2717; inhibition, % at 7.5 µM; cancer stem cell-like cells viability, luminescence;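 active = mean at 75% or more and at least half the replicates too; inconclusive = mean and replicates disagree; tested in HMLE shEcad cells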;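 note: 0% = median of negative and 100% = median of positive control wells; the first replicate is given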
PABP polyA inh = blocks human PABP binding to poly(A) RNA; fluorescence polarization; inhibition, % at 35 µM; 290,000 tested, 1% active;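 active = 50% or more with normal probe brightness, or confirmed in later tests; inconclusive = above 50% with abnormal brightness, or retests that disagree; inactive = below 50% or failed in later tests; about a fifth of its hits are not listed in these tables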;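 note: calls also rest on retests at 20 µM and on dose response follow-up; controls were probe without protein and protein plus probe with vehicle; some compounds called inactive have numbers as strong as hits; many hits fall short of the cut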
Target sequence (P11940 whole entry, looked up): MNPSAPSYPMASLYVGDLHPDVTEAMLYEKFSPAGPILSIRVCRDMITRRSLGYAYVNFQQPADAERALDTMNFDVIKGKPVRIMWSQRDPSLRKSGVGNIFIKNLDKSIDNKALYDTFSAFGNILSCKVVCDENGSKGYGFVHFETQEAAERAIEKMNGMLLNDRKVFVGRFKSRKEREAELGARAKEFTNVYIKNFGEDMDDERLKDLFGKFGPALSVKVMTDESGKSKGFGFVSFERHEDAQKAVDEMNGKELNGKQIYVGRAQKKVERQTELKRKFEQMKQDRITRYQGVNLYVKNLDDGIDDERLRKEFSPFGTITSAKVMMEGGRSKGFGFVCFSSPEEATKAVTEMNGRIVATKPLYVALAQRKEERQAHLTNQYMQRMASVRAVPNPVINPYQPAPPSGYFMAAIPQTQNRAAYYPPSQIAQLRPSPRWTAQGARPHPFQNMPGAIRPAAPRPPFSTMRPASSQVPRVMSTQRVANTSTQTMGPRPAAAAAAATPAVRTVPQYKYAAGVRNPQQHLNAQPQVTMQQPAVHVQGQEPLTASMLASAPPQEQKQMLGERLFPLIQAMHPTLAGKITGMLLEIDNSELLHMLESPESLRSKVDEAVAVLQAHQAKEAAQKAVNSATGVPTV
MT1-MMP act inh RFP = further read-out of MT1-MMP act inh, marked with its call; RFP signal change, %; measured here: RFP expression control read;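 0 = vehicle wells; hits needed this value within 50% of zero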
The depositor's hits bear a star; i = inactive; ? = inconclusive; . = no result given; & = joins results of further samples; [ ] = dose if it differs, or a comment. Not a hit list; about 2.9% have a hit in one of these screens.

nr	structure	Rce1 inh	HIV Env fusion	MT1-MMP act inh	MT1-MMP act inh RFP	PABP polyA inh	Yeast UUG start	CSC inhib	eIF4H inh
1	COc1cc(/C=C/C(=O)OCC(=O)Nc2c(C)n(C)n(-c3ccccc3)c2=O)cc(OC)c1OC	.	-2	7	1	.	-4	.	.
2	CCC(C)(C)n1nnnc1C(c1cccs1)N1CCc2ccccc21 (stereo unspecified)	i	.	-9	-9	2	.	-7	-1
3	CC(C)[C@H](NC(=O)NCc1ccc(Cl)cc1)C(=O)O	i	4	-4	3	8	-6	-4	-9
4	CSc1cccc(N2CC(C(=O)Nc3ccccc3N3CCCC3)CC2=O)c1 (stereo unspecified)	i	10	-4	-1	.	6	-5	.
5	CCOC(=O)C1=CCC(c2ccc(Cl)cc2)N(S(=O)(=O)c2ccc(C)cc2)C1 (stereo unspecified)	.	-8	-3	-6	.	-14	.	.
6	CCCCCCCCCCCCCCCC[N+](C)(C)CC	i	?	-6	-32	.	-17	101*	.
7	C/C(=N\NC(=O)c1ccncc1)c1cc2ccccc2oc1=O	i	4	-2	-1	-13	.	7	-2
8	Cc1cc(Cl)ccc1N(CC(=O)N(C)Cc1ccccc1)S(C)(=O)=O	.	37	4	1	.	0	.	.
9	CCOC(=O)N/N=C(\C)c1ccccc1OC(F)F	i	.	4	7	11	0	-12	-1
10	O=C(NCCCN1CCCC1=O)c1ccc(Cl)c(NS(=O)(=O)c2ccc(F)cc2)c1	i	-87	0	0	-14	-6	5	-10
11	S=c1[nH]nc(-c2cccc(Cl)c2)n1CCN1CCCCC1	i	-1	2	4	2	-15	-5	5
12	CC(=O)NC(NC(=S)Nc1ccccc1Br)C(Cl)(Cl)Cl (stereo unspecified)	i	0	0	1	24	.	-12	-2
13	COc1ccc(CN2C(=O)c3ccc(C(=O)O)cc3C2=O)cc1	i	-13	0	0	-6	1	-9	10
14	COc1ccc(CN2CCNC(=O)C2CC(=O)N(C)Cc2ccno2)c(F)c1 (stereo unspecified)	i	.	-1	3	-2	-18	-8	12
15	COc1ccc(CN2C(=O)C(CC(C)C)Nc3ncnc(N4CCOCC4)c32)cc1 (stereo unspecified)	i	-7	1	2	.	7	8	.
16	Cc1ccc(N2C(=O)c3n[nH]c(C)c3C2c2ccccn2)cc1 (stereo unspecified)	i	-47	.	.	?	-12	-16	?
17	COc1ccc(S(=O)(=O)Nc2ccc(O)c(Sc3nc4ccccc4s3)c2)cc1	i	15	-2	-2	1	.	9	-1
18	CON=C(C(=O)NC1C(=O)N2C(C(=O)O)=C(CSc3nc(=O)c(=O)[nH]n3C)CSC12)c1csc(N)n1 (stereo unspecified)	.	1	2	8	.	4	.	.
19	O=C(O)C1CCCN(S(=O)(=O)c2ccc(Br)s2)C1 (stereo unspecified)	i	-4	0	2	-8	-13	9	0
20	COc1ccc(/C=C/C(=O)Nc2ccccc2C(=O)N2CCCC2)cc1	i	-179	3	3	3	-11	-8	5
21	Cc1ccc(S(=O)(=O)NCCC(=O)NC2CC2)cc1	i	-11	0	4	.	-16	-7	.
22	COc1ccc(OC)c(NC(=O)Cc2coc3ccc4ccccc4c23)c1	i	.	-4	-10	12	-8	-1	-2
23	CC(=O)NC1C(OCCOc2ccc(Cl)cc2Cl)OC(COC(C)=O)C(OC(C)=O)C1OC(C)=O (stereo unspecified)	i	.	-1	1	-4	-8&1	1	5
24	COC(=O)c1ccc(COc2cccc(OC)c2)o1	i	.	3	6	-2	.	-15	-10
25	COC(=O)[C@]1(C)N[C@H](c2ccc(-c3ccc(Cl)c(Cl)c3)cc2)[C@@H]2C(=O)N(C)C(=O)[C@@H]21	i	0	4	-6	.	0	25	.
26	COc1ccc(-c2cc(NC(C)=O)c3ncc(-c4ccc(OC)c(OC)c4)n3c2)c(OC)c1	.	38	-4	2	.	-3	.	.
27	CC(=O)COc1c(-c2ccco2)oc2ccccc2c1=O	i	-17	-5	3	1	-19	-9	7
28	CCn1nc2cc(C(=O)NCC34CC5CC(CC(C5)C3)C4)ccc2c1OC	i	19	6	1	-4	-18	-5	-3
29	C=CC(C)Sc1nc2c(c(=O)n(C)c(=O)n2C)n1Cc1ccccc1Cl (stereo unspecified)	i	14	-5	-8	2	-5	15	5
30	O=C(/C=C/c1cccc([N+](=O)[O-])c1)Nc1cccc(NC(=O)c2ccco2)c1	i	.	6	5	-1	.	14	-15
31	COc1ccc(NC(=S)N2CCN(C(=O)c3ccco3)CC2)c(OC)c1	i	16	-4	3	2	.	-4	-4
32	CC1=[N+](C)N(c2ccccc2)C(=O)C1N=C/C=C/c1ccccc1 (stereo unspecified)	i	-1	1	5	-1	-17	3	-10
33	NCc1ccccc1CS(=O)(=O)N1CCOCC1	.	.	4	2	.	-18	-12	.
34	N#Cc1cccc(CS(=O)(=O)c2ccc(Cl)cc2)c1	i	-29	3	3	5	-3	0	8
35	Cc1ccccc1N=Nc1c(O)[nH]c2ccccc12	i	-146	-9	2	.	-5	10	.
36	COc1cccc(N(C(=O)c2ccco2)C(C(=O)NC2CCCC2)c2cccnc2)c1 (stereo unspecified)	i	.	6	1	-3	-13	-1	8
37	COc1cc(C(=O)OCC(=O)NC2CCCCC2)cc(OC)c1OC	.	24	6	0	.	5	.	.
38	O=C(NCc1ccccc1)C1=C[C@@H](C2CC2)C[C@@H](OCc2ccc(CO)cc2)O1	i	-3[16.7 µM]	0	-3	-4	12&-12	-1	1
39	C/C(=N\NC(=O)Cc1ccc(Cl)cc1)c1ccccc1O	i	3	6	4	1	-5	9	-8
40	COc1ccc(NC(=O)c2cc(-c3ccccc3Cl)on2)cc1OC	i	14	2	0	3	-6	-24	-10
41	O=C1Cc2cc(S(=O)(=O)N3CCN(c4ccc(O)cc4)CC3)ccc2N1	.	29	1	1	.	-5	.	.
42	CCN(CC)CCCNC(=O)c1sc2nc(-c3ccc(F)cc3)cn2c1C	i	-40	6	2	-8	-21	25	8
43	Cc1ccnc(SCCn2c(Br)nc3c2c(=O)[nH]c(=O)n3C)n1	i	.	2	2	-8	-16	-12	-4
44	CC(=NCc1ccc2c(c1)OCO2)C1=C(O)c2ccccc2C1=O	i	.	5	-1	3	-6	46	4
45	O=C(Nc1ccc2nn(-c3ccccc3)nc2c1)c1cccnc1	i	.	0	0	-7	-23	-5	-25
46	CC(C)CC(c1nnnn1C1CCCC1)N1CCN(c2ccccc2F)CC1 (stereo unspecified)	i	.	-4	-6	16	-3	26	-6
47	CCCCc1cc(=O)oc2cc(OCC(=O)NC(Cc3c[nH]c4ccc(O)cc34)C(=O)O)ccc12 (stereo unspecified)	i	.	0	4	14	6	-3	13
48	CCOC(=O)c1sc(NS(=O)(=O)c2cc(C)ccc2C)nc1C	i	-19	-1	5	3	-13	-2	-7
49	CCOC(=O)CNC(=O)CSc1nnc(CCc2nc3ccccc3[nH]2)n1C	i	-13	-4	-3	-13	-23	-13	-5
50	C#Cc1cccc(Nc2nc(NCc3ccccc3)nc3ccsc23)c1	.	15	2	-19	.	-10	.	.
51	CCc1ccccc1NC(=S)NC1CC2CCC(C1)N2Cc1ccco1 (stereo unspecified)	i	.	6	-4	-1	-24	-23	-14
52	O=C(OCC(=O)c1ccc[nH]1)c1ccc(S(=O)(=O)C(F)F)cc1	.	-17	-3	4	.	-17	.	.
53	COc1ccc(OCC(=O)OCC(=O)NC2CCCCC2C)cc1 (stereo unspecified)	.	0	0	2	.	-11	.	.
54	Cc1cc(N2C(=O)C(O)=C(C(=O)c3cccs3)C2c2cccc(Br)c2)no1 (stereo unspecified)	i	3	3	4	10	-10	6	9
55	COc1ccc(N2CC(O)(c3ccc(OC(F)F)cc3)[N+]3=C2CCCC3)cc1 (stereo unspecified)	i	8	-5	-5	7	.	23	-1
56	O=C(NC(CO)(CO)CO)[C@@H]1CCCN1S(=O)(=O)c1cccc2cccnc12	.	-8	0	5	.	-13	5	.
57	O=C(N/N=C/c1ccc(OC2CSC2)cc1)c1ccccc1	i	.	16	8	-11	-4	89*	2
58	COc1ccc(-c2ccnc(SCC(=O)c3ccc(Cl)cc3)n2)cc1	i	1	-1	0	-2	.	19	-4
59	c1ccc(Cn2c(-c3ccccc3)nc3nc4ccccc4nc32)cc1	i	-6	-3	-6	-13	-24	.	-2
60	O=C(NCCCN1CCOCC1)c1cc(-c2cccc(Br)c2)nc2ccccc12	i	6	3	0	3	-10	20	-1

(list continues)
nr	structure	Rce1 inh	HIV Env fusion	MT1-MMP act inh	MT1-MMP act inh RFP	PABP polyA inh	Yeast UUG start	CSC inhib	eIF4H inh
61	Cc1csc(/C(=N/OC(=O)c2ccco2)C(N)=O)n1	i	-44	-2	-1	1	-23	-16	-6
62	Clc1nc(Oc2ccccc2)nc(-c2cn(-c3ccccc3)c3ccccc23)n1	i	13	1	0	-14	.	4	32
63	CCN1CCN(C(c2cccs2)C(C)NS(=O)(=O)c2ccccc2)CC1 (stereo unspecified)	i	-4	0	3	2	-18	-7	-2
64	O=C(CCC1CCCC1)N[C@@H](Cc1ccc(O)cc1)C(=O)O	i	-26	-2	5	0	8	11	2
65	COCC(C)n1c(SCC(=O)Nc2oc(C)c3c(C)n[nH]c(=O)c23)nc2ccccc2c1=O (stereo unspecified)	i	-1	-3	2	12	-6	-6	8
66	Cc1csc(NC(=O)C2CCC(C)(C(=O)O)C2(C)C)n1 (stereo unspecified)	i	2	1	-1	-6	-11	0	-2
67	CCC(=O)c1ccc(OCC(=O)N2CCc3cc(OC)c(OC)cc3C2)cc1	.	-15	3	-1	6	-10	15	-4
68	Cc1nn(C)cc1CNC(=O)COc1ccc(Cl)cc1Cl	i	22	3	6	8	-10	-18	-2
69	COc1ccc(C(=O)N[C@H](C(=O)NCc2cccs2)C(C)C)cc1	i	0	1	-1	3	.	-1	3
70	Cc1cccc(-c2nc(CNC(=O)c3ccco3)cs2)c1	i	-11	7	0	-9	4	-3	-8
71	CC1(C)CC(CC(=O)Nc2ccccn2)C(=O)O1 (stereo unspecified)	i	-28	5	8	5	7	-10	-6
72	CSc1nc2c(c(=O)[nH]c(=O)n2C)n1Cc1ccc(Cl)cc1	i	8	0	1	10	-6	-2	-5

Screens deposited in PubChem by several laboratories.
